Source: PubChem BioAssay (several laboratories)
Arbovirus inh = blocks arbovirus infection | arbovirus infection cell-based antiviral screen | inhibition, % at 10 µM | 200,000 compounds, 0.37% hits;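 active = inhibition from about 30%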;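 note: bluetongue infection of BSR cells; cell survival read as ATP light after 72 h; 0% = infected wells without compound and 100% = uninfected wells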
Mtb growth = M. tuberculosis H37Rv growth inhibitors, H37Rv strain (AID 1626); M. tuberculosis H37Rv growth inhibition; higher % means a stronger effect; one-dose inhibition, % at 10 µM; IC50 in µM for titrated hits; 220,000 compounds, 0.95% hits;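 active = confirmed in a dose series; inconclusive = inhibition above 80% but not taken into the dose series; inactive = below 80% or under 30% at every dose of the series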;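 note: bacteria incubated seven days before Alamar blue readout; 0% = bacteria only wells and 100% = bacteria with antibiotic wells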
Mtb betalactam = beta-lactam sensitization of Mtb H37Rv. inhibition, % at 25 µM. 330,000 compounds, 0.27% hits. M. tuberculosis H37Rv growth with meropenem, percent inhibition; hits of this screen are not shown here;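 active = about 74% or more and at least 40 points above the plate without the antibiotic, then above 30% in a dose series; inconclusive = first-round hits that could not be retested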;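 note: growth measured after seven days incubation then overnight dye step; 0% = bacteria only wells and 100% = bacteria with antibiotic; twin plates without the antibiotic show which effects depend on it; some results filed as inactive read as strong as hits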
RecA splice inh = Mtb RecA intein splicing inhibition; P9WHJ3; cell-free RecA intein splicing, fluorescence; 290,000 compounds, 0.75% hits; inhibition, %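 (about 9 µM by stock and volumes)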; in the data active = inhibition above about 30%; inconclusive = no clear call, values can overlap the other calls;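 note: 0% = vehicle wells and 100% = reference inhibitor control wells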
Target sequence (P9WHJ3 whole entry, looked up, canonical isoform): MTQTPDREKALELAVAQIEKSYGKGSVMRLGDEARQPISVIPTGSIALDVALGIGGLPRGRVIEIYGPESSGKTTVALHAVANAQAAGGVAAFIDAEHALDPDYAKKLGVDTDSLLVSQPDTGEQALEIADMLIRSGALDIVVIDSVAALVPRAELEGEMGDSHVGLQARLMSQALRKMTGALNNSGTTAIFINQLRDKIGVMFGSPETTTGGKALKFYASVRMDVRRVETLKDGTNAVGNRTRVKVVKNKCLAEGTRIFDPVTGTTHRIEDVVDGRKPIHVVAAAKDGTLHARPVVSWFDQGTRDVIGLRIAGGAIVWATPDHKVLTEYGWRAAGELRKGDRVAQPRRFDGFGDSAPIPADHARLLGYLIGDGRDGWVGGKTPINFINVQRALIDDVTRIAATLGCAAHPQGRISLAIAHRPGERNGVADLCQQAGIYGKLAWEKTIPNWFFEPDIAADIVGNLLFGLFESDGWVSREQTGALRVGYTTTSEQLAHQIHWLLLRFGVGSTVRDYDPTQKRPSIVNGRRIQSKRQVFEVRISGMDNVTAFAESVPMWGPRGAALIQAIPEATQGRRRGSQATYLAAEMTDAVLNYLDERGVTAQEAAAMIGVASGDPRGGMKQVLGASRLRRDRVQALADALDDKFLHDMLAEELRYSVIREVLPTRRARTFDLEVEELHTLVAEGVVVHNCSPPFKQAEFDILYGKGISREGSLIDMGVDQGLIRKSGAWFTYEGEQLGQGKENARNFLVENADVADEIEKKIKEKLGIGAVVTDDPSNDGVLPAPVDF
YopH PTP inh = YopH (Yersinia) phosphatase inhibition | inhibition, %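 (about 10 µM by stock and volumes)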 | AID 898 | fluorescence Ex485/Em525 | 140,000 compounds, 0.16% hits;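 active = inhibition of 50% or more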;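 note: controls were vehicle for no effect and minimum signal wells for full effect; inactives centre near -20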
Arbovirus inh repeat = further read-out of Arbovirus inh, marked with its call; inhibition, %; measured here: 10K subset replicate screen; many hits read low in the repeat;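 first of two repeat runs on a subset; 0% = infected and 100% = uninfected wells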
The depositor's hits bear a star; ? = inconclusive; nt = not tested or not shown. An excerpt; rates above refer to the full screens.

SMILES	Arbovirus inh	Mtb growth	Mtb betalactam	RecA splice inh	YopH PTP inh	others
CCN(c1ccc(NC(=O)CCc2nc3sc4c(c3c(=O)[nH]2)CCCC4)cc1)C(C)C	nt	nt	-2	-1.9	nt
O=C(c1ccc(NC2=NC3CS(=O)(=O)CC3S2)cc1)N1CCc2ccccc2C1 (stereo unspecified)	0	1%	-5	2.3	5	Arbovirus inh repeat=0
CCC(=O)c1ccc(OCC(O)CN2CCN(S(=O)(=O)N3CCCCC3)CC2)cc1 (stereo unspecified)	0	-3%	1	-4.8	-32
CCOC(=O)C(C#N)=C1CCN(Cc2ccccc2)CC1	nt	nt	-4	-11	nt
COc1ccc(-c2nc(NC(=O)CSc3nnc4ccccn34)ns2)cc1	9	3%	68	1.7	-30
CCOc1ccc(NC(=O)CSc2nnc(CNC(=O)c3cccs3)o2)cc1	nt	nt	89	-5.3	nt
O=C(NC1CCCCC1)C(c1ccco1)N(C(=O)C(F)(F)F)C1CC1 (stereo unspecified)	-2	-10%	1	2.8	-8
CSCC[C@H](NC(=O)N1CCn2c1nc1ccccc12)C(=O)NCc1ccc(C)cc1	nt	nt	1	-2.0	nt
Cc1cccc(OC(=O)N2CCOCC2)c1	-2	-5%	-6	-1.5	-19
CCCCN(C1CCS(=O)(=O)C1)S(=O)(=O)c1ccc(C(C)C)cc1 (stereo unspecified)	nt	nt	-15	0.4	nt
Cc1c(C(=O)N2CCNCC2)oc2ccccc12	nt	nt	-5	-2.4	nt
O=C1CCCc2nc(N3CCc4ccccc43)ncc21	-5	3%	32	-4.9	-36
CCOC(=O)c1nc(-c2ccc3c(c2)OCO3)[nH]c1C	-8	0%	7	-0.3	-31	Arbovirus inh repeat=-10
Cc1ccc(CNC(=O)C(Cc2ccccc2)NS(=O)(=O)c2cccs2)cc1 (stereo unspecified)	-12	0%	-1	-1.6	-22
CCCC(=O)N1CCN(Cc2ccc3c(c2)OCO3)CC1	-9	-1%	-5	-1.5	-10
Cc1cccc(CCNC(=O)C2CCN(S(=O)(=O)c3ccccc3)CC2)c1	-9	-2%	-3	2.7	nt
COc1ccc(N(CC(=O)Nc2ccc(OC)c(Cl)c2)S(=O)(=O)c2c(C)noc2C)cc1	5	0%	20	-1.0	-50
Cc1ccc2nc(SCC(=O)N(CC(C)C)c3c(N)n(CC(C)C)c(=O)[nH]c3=O)[nH]c2c1	3	0%	-3	1.4	2
S=c1nc(NCc2cccc(Cl)c2)c2ccccc2[nH]1	nt	nt	-1	-6.6	nt
CC(N)Cc1c[nH]c2cc3c(cc12)OCCO3 (stereo unspecified)	-1	nt	-7	-1.0	-20
CCc1cc2c(N[C@@H](C)C(=O)O)ncnc2s1	-1	-12%	3	-0.7	-12
COc1cccc(CC(=O)Nc2ccccc2N2CCCC2)c1	nt	nt	-2	0.8	nt
CCCCOc1ccc2ccccc2c1C=O	25	5%	7	1.3	-4
CC(C)c1ccc(C(C)NC(=S)NC2CCCCC2)cc1 (stereo unspecified)	nt	nt	26	3.1	nt
COc1ccc(CN(Cc2cccn2C)S(=O)(=O)c2ccccc2)cc1	nt	5%	1	12	nt
N#C/C(=C\c1ccccc1[N+](=O)[O-])c1nc(C2CC2)cs1	-6	12%	7	19	-30
O=C(CN1C(=O)c2ccccc2C1=O)NCC(=O)OCC(=O)c1ccc(Br)cc1	5	nt	5	-0.9	-47
O=S(=O)(Nc1nc2ccccc2nc1Cl)c1ccc(Cl)cc1	14	-9%	-4	-2.4	-48
O=C(COC(=O)C12CC3CC(CC(O)(C3)C1)C2)Nc1ccccc1OC(F)F	14	-7%	-17	-2.1	-24
COc1ccccc1C1/C(=C(/O)c2ccc(OC(C)C)cc2)C(=O)C(=O)N1c1cc(C)on1 (stereo unspecified)	10	-12%	6	1.6	-8
Cc1ccc(OCCSc2nc(NC(C)C)nc(NC(C)C)n2)cc1	-19	16%	9	5.1	-9
Cc1nc2c(C)cccn2c1/C(O)=C1\C(=O)C(=O)N(CCN(C)C)C1c1ccccc1 (stereo unspecified)	nt	4%	-6	0.3	nt
O=C(NNS(=O)(=O)c1ccc2ccccc2c1)c1cccnc1	-3	-4%	4	-3.4	-57
CCCn1nc2cc(C(=O)NCc3ccc(C)cc3)ccc2c1OC	-1	-7%	-7	-4.8	-3
C#CCOC(=O)c1csc2nnsc12	0	-2%	-5	1.0	-15
CC1=C(C(N)=O)C(c2ccccc2F)NC(=O)N1 (stereo unspecified)	1	-3%	5	-1.3	-23
CC(=O)N1CCc2cc(S(=O)(=O)Nc3ccc(C)cc3)ccc21	nt	nt	-6	1.1	nt
Cc1csc(NC(=O)c2cccs2)n1	-2	-5%	-6	-0.1	-2
O=C(Nc1nc2nc(-c3ccccc3)cc(=O)n2[nH]1)c1ccccc1	7	-3%	95	-0.1	-29
C=CCn1c(-c2ccc(=O)n(Cc3ccccc3)c2)n[nH]c1=S	-2	-6%	-5	-1.6	nt
CCCCn1c(-c2ccc(Br)cc2F)nc2c1c(=O)[nH]c(=O)n2CC(C)C	nt	nt	9	2.3	nt
CC1CCCN(C(=O)Cn2nnc(-c3ccc(N(C)C)cc3)n2)C1 (stereo unspecified)	nt	nt	-2	-2.9	nt
Cc1ccc(C)c2c3c([nH]c12)-c1nonc1CC3	17	9%	21	7.7	-13
COCCCNC(=O)Cn1ncc2ccsc2c1=O	9	nt	0	-5.8	-30	Arbovirus inh repeat=-1
CCOc1ccc(-n2nnc3c(=O)n(CC(=O)NCc4ccco4)cnc32)cc1	nt	2%	-11	1.1	nt
CCS(=O)(=O)N1Cc2ccccc2CC1C(=O)Nc1ncc(C)s1 (stereo unspecified)	1	9%	4	1.5	nt
O=C(O)Cc1csc(-c2ccccc2)n1	3	3%	-9	0.8	nt
Cc1sc(NC(=S)NC(=O)c2ccco2)c(C(N)=O)c1C	-4	-6%	1	-2.1	nt
CC(=O)Nc1ccc(C(=O)NC(CC(=O)O)c2ccc(Cl)cc2)cc1 (stereo unspecified)	8	-11%	-6	2.0	-27
Cn1c(=O)c2[nH]c(COc3ccc(C(C)(C)C)cc3)nc2n(C)c1=O	nt	1%	3	-1.6	nt
Cc1ncc(CO)c(/C=N/NC(=S)Nc2ccc(Cl)c(Cl)c2)c1O	-16	46%	18	15	nt
[2H]c1c([2H])c([2H])c(-c2nc(N3CCCCCC3)sc2C(=O)c2ccccc2)c([2H])c1[2H]	2	-5%	44	-6.7	-24
COc1cc(OC)cc(/C(N)=N/O)c1	nt	-9%	-2	-0.7	nt
Cc1ccc2c(c1)nnn2C1CCN(S(=O)(=O)c2ccc(C(=O)NC3CCCC3)cc2)CC1	1	-11%	0	-4.0	-23
CC1CN(c2ccccc2)c2nc3c(c(=O)[nH]c(=O)n3C)n2C1 (stereo unspecified)	nt	nt	-4	-3.4	nt
CCOc1cccc2c1OC(c1cc(OC)c(OC)c(OC)c1)N1N=C(c3ccc(C)o3)CC21 (stereo unspecified)	-13	10%	-2	nt	-6
CCCN1CCN(CC(O)COC(c2ccc(OC)cc2)c2ccc(OC)cc2)CC1 (stereo unspecified)	nt	nt	-2	-0.7	nt
O=C(CSc1nnnn1C1CC2C=CC1C2)Nc1ccc(C(=O)O)cc1 (stereo unspecified)	nt	nt	0	4.8	nt
CC(C)Oc1ccc(C2C(C#N)=C(N)Oc3c2c(=O)oc2ccccc32)cc1 (stereo unspecified)	8	-8%	3	1.8	-13
COc1ccccc1CN(Cc1cc2cc3c(cc2[nH]c1=O)OCCO3)Cc1nnnn1Cc1ccco1	-7	-5%	-3	3.5	-15

By substructure, the entries above with a cyano group
SMILES	Arbovirus inh	Mtb growth	Mtb betalactam	RecA splice inh	YopH PTP inh	others
CCOC(=O)C(C#N)=C1CCN(Cc2ccccc2)CC1	nt	nt	-4	-11	nt
N#C/C(=C\c1ccccc1[N+](=O)[O-])c1nc(C2CC2)cs1	-6	12%	7	19	-30
CC(C)Oc1ccc(C2C(C#N)=C(N)Oc3c2c(=O)oc2ccccc32)cc1 (stereo unspecified)	8	-8%	3	1.8	-13

(listing goes on)
SMILES	Arbovirus inh	Mtb growth	Mtb betalactam	RecA splice inh	YopH PTP inh	others
O=C(CN1C(=O)C2C3c4ccccc4C(c4ccccc43)C2C1=O)Nc1ccccc1C(=O)O (stereo unspecified)	12	0%	2	6.7	-23
CCOC(=O)c1cc(=O)n2[nH]c(-c3ccc(C)cc3)cc2n1	2	3%	34	-22	-34
Cc1ccc(NC(=O)CCn2nc(C)cc2C)c(C)c1	1	2%	-3	1.8	-39
O=C(CSCc1ccccc1)Nc1ccc(S(=O)(=O)Nc2ncccn2)cc1	nt	nt	-4	0.7	nt
COc1ccc(CNC(=S)Nc2cc(C)ccc2C)cc1	2	5%	1	1.7	12
CCOC(=O)C1(CCCc2ccccc2)CCN(C(=O)C2CCCO2)CC1 (stereo unspecified)	7	0%	5	0.4	nt
O=c1[nH]cnc2scc(C3COc4ccccc4O3)c12 (stereo unspecified)	-2	1%	-6	0.3	-31
COc1cc(NC(C)=O)ccc1NC(=O)c1cc2ccccc2o1	nt	nt	-3	-0.3	nt
CSc1ccccc1-n1nnnc1SCC(=O)NCc1cccs1	2	1%	5	2.3	-18
Cc1nc(-c2ccc(Cl)cc2)sc1C(=O)NN	nt	0%	1	1.4	nt
O=C(Nc1ccc2c(c1)Cc1ccccc1-2)c1ccco1	-4	-1%	-1	8.1	-39
CC(C)(C)NCc1cccn1-c1sc2c(c1C#N)CCCC2	9	-2%	1	1.2	-2
O=C(NCc1ccco1)C1CCCN1S(=O)(=O)c1ccccc1C(F)(F)F (stereo unspecified)	nt	-15%	-3	-7.1	nt
O=C(COC(=O)C1CC(=O)N(c2ccccc2)C1)c1ccccc1 (stereo unspecified)	15	-5%	?	1.0	-15
Cc1ccccc1OCC(=O)N/N=C1\CCOc2c(C)cccc21	1	-15%	0	2.1	-16

Molecules listed so far containing four or more nitrogen atoms:
SMILES	Arbovirus inh	Mtb growth	Mtb betalactam	RecA splice inh	YopH PTP inh	others
CCN(c1ccc(NC(=O)CCc2nc3sc4c(c3c(=O)[nH]2)CCCC4)cc1)C(C)C	nt	nt	-2	-1.9	nt
COc1ccc(-c2nc(NC(=O)CSc3nnc4ccccn34)ns2)cc1	9	3%	68	1.7	-30
CCOc1ccc(NC(=O)CSc2nnc(CNC(=O)c3cccs3)o2)cc1	nt	nt	89	-5.3	nt
CSCC[C@H](NC(=O)N1CCn2c1nc1ccccc12)C(=O)NCc1ccc(C)cc1	nt	nt	1	-2.0	nt
Cc1ccc2nc(SCC(=O)N(CC(C)C)c3c(N)n(CC(C)C)c(=O)[nH]c3=O)[nH]c2c1	3	0%	-3	1.4	2
Cc1ccc(OCCSc2nc(NC(C)C)nc(NC(C)C)n2)cc1	-19	16%	9	5.1	-9
Cc1nc2c(C)cccn2c1/C(O)=C1\C(=O)C(=O)N(CCN(C)C)C1c1ccccc1 (stereo unspecified)	nt	4%	-6	0.3	nt
O=C(Nc1nc2nc(-c3ccccc3)cc(=O)n2[nH]1)c1ccccc1	7	-3%	95	-0.1	-29
C=CCn1c(-c2ccc(=O)n(Cc3ccccc3)c2)n[nH]c1=S	-2	-6%	-5	-1.6	nt
CCCCn1c(-c2ccc(Br)cc2F)nc2c1c(=O)[nH]c(=O)n2CC(C)C	nt	nt	9	2.3	nt
CC1CCCN(C(=O)Cn2nnc(-c3ccc(N(C)C)cc3)n2)C1 (stereo unspecified)	nt	nt	-2	-2.9	nt
CCOc1ccc(-n2nnc3c(=O)n(CC(=O)NCc4ccco4)cnc32)cc1	nt	2%	-11	1.1	nt
Cn1c(=O)c2[nH]c(COc3ccc(C(C)(C)C)cc3)nc2n(C)c1=O	nt	1%	3	-1.6	nt
Cc1ncc(CO)c(/C=N/NC(=S)Nc2ccc(Cl)c(Cl)c2)c1O	-16	46%	18	15	nt
Cc1ccc2c(c1)nnn2C1CCN(S(=O)(=O)c2ccc(C(=O)NC3CCCC3)cc2)CC1	1	-11%	0	-4.0	-23
CC1CN(c2ccccc2)c2nc3c(c(=O)[nH]c(=O)n3C)n2C1 (stereo unspecified)	nt	nt	-4	-3.4	nt
O=C(CSc1nnnn1C1CC2C=CC1C2)Nc1ccc(C(=O)O)cc1 (stereo unspecified)	nt	nt	0	4.8	nt
COc1ccccc1CN(Cc1cc2cc3c(cc2[nH]c1=O)OCCO3)Cc1nnnn1Cc1ccco1	-7	-5%	-3	3.5	-15
O=C(CSCc1ccccc1)Nc1ccc(S(=O)(=O)Nc2ncccn2)cc1	nt	nt	-4	0.7	nt
CSc1ccccc1-n1nnnc1SCC(=O)NCc1cccs1	2	1%	5	2.3	-18
